HCMV NEC inh: inhibitors of HCMV UL50-UL53 nuclear egress complex interaction; HTRF UL50-UL53 interaction, normalized percent inhibition; inhibition, % (test concentration not listed); 190,000 compounds, 0.15% hits; AID 1918969;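 active means both replicates at 50% or more, plus weaker picks with an unusually low signal ratio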;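 further: stock transfer was 100 nL into about 20 µL; 0% = negative control wells and 100% = wells with untagged competitor protein; inactives centre near -12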
Sa growth inh: S. aureus growth inhibition; relative growth, % (concentration not given with the values); S. aureus RN4220 growth, OD600, 20 h, 42 °C; active compounds read low; AID 720641; 170,000 compounds, 0.53% hits;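 active means growth at 42 °C up to 50% and 20 or more points under that at 30 °C, or under 10% at both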;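 further: 300 nL library stock went into each well; scaled to the means of positive and negative controls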
GIV-Gai inh: inhibitors of GIV GBA-motif binding to rat Galpha-i3; percent of control (FP), % (test concentration not listed); 210,000 compounds, 0.42% hits; Galpha-i3/FITC-GIV peptide fluorescence polarization, 90 min; active compounds read low; scaled: aluminum fluoride 0%, vehicle 100%;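 active means replicate mean at 85% of control or lower, very high polarization wells dropped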;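 further: lower values mean more displacement of the GIV peptide from Galpha-i3; wells of about 15 µL received 100 nL stock; the first replicate is given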
Target sequence (P08753 whole entry, looked up): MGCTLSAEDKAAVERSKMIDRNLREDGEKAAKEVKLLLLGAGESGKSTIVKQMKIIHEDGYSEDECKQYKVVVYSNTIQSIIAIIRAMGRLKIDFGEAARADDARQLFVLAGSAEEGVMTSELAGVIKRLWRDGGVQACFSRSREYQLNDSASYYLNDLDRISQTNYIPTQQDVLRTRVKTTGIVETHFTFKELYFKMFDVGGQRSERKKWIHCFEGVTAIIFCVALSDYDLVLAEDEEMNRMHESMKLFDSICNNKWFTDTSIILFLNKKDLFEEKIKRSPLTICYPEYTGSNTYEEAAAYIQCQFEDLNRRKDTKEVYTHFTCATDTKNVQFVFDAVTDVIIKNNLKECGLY
Sa growth inh second temp: recorded beside Sa growth inh, whose call it bears; relative growth, %; measured here: growth at 30 °C;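 optical density after 20 h as mean of two plates; 100% = untreated growth and lower means inhibition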
* hit, by the source's call; nt = not tested or not shown; & = joins results of further samples.

SMILES	HCMV NEC inh	Sa growth inh	Sa growth inh second temp	GIV-Gai inh
COC(=O)C12CCC3(C(=O)OC)CC(C(=O)OC)(CC(C(=O)OC)(C1)C3=O)C2=O	-32	93	86	103
CCOC(=O)c1c(NC(=O)CSc2cc(-c3ccccc3)nc(C)n2)sc2c1CCCC2	-13	nt	nt	99
O=C(O)c1nnn(-c2cccc(C(F)(F)F)c2)c1-c1ccccc1	-1	117	82	103
O=C(OCC(=O)N1CCCCCC1)c1ccccc1	-20	106	93	nt
CCS(=O)(=O)N1CC(=O)N(c2cccc(Cl)c2)C(C)(C(=O)NC2CCCCCC2)C1 (configuration not stated)	nt	94	96	109
O=C(Cn1c(-c2cccs2)cc2ccccc21)NCCc1ccc(Cl)cc1	nt	102	106	104
CCCC(=O)N(CC)Cc1cc2cc(OC)ccc2[nH]c1=O	0	108	91	nt
Cc1ccc(C(=O)NCCC(C)C)cc1NC(=O)c1nsc2ccccc12	nt	94	79	103
Cc1ccc(C(=O)NCO)cc1	-16	123	88	nt
CCCN(CCC)S(=O)(=O)c1ccc(CCN2C(=O)c3cccnc3C2=O)cc1	-45	88	99	110
CCc1ccc(S(=O)(=O)Nc2ccc3oc4c(c3c2)C(=O)CCC4)cc1	-37	71	87	102
CCCCOC(=O)Cc1c(C)[nH]c(=O)[nH]c1=O	13	101	116	103
c1ccc(-c2nnc3ccc4nnc(-c5ccccc5)n4n23)cc1	-46	110	104	100
Cc1nnc2n(C3CCCCC3)c(=O)c3c4c(sc3n12)CCC4	-12	90	83	101
NNC(=O)CN1c2ccccc2Sc2ccccc21	-33	95	91	99
CCN(Cc1ccncc1)C(=O)c1ccc(F)cc1F	8	97	96	nt
CCOc1ccccc1/C=N/NC(=O)c1ccccc1O	-19	103	97	105
COc1ccc(OC)c(S(=O)(=O)Nc2cc3[nH]c(=O)[nH]c3cc2C)c1	-10	nt	nt	110
CCOc1ccc(NC(=O)CSc2nc(-c3ccc(F)cc3)cc(C(F)(F)F)c2C#N)cc1	-5	108	102	110
N#CCn1c(CN2CCOCC2)nc2ccccc2c1=O	-15	64	89	nt
Cc1nc2cc(-c3ccccc3)nn2c(C)c1CCC(=O)NC1CCCC1	-5	91	84	107
O=C(CSc1nnc2sc3ccccc3n12)Nc1cc(Cl)ccc1Cl	14	nt	nt	109
CS(=O)(=O)Cc1ccc(C(=O)O)cc1	-18	92	92	nt
CC(CNC(=O)CCS(=O)(=O)c1ccc2c(c1)oc(=O)n2C)c1ccccc1 (configuration not stated)	nt	94	82	104
COC(=O)c1cc(=O)c2cc(C)ccc2[nH]1	-85	nt	nt	95

As a working copy, part of the list above:
SMILES	HCMV NEC inh	Sa growth inh	Sa growth inh second temp	GIV-Gai inh
Cc1ccc(C(=O)NCO)cc1	-16	123	88	nt
CCCN(CCC)S(=O)(=O)c1ccc(CCN2C(=O)c3cccnc3C2=O)cc1	-45	88	99	110
CCc1ccc(S(=O)(=O)Nc2ccc3oc4c(c3c2)C(=O)CCC4)cc1	-37	71	87	102
CCCCOC(=O)Cc1c(C)[nH]c(=O)[nH]c1=O	13	101	116	103
c1ccc(-c2nnc3ccc4nnc(-c5ccccc5)n4n23)cc1	-46	110	104	100
Cc1nnc2n(C3CCCCC3)c(=O)c3c4c(sc3n12)CCC4	-12	90	83	101
NNC(=O)CN1c2ccccc2Sc2ccccc21	-33	95	91	99
CCN(Cc1ccncc1)C(=O)c1ccc(F)cc1F	8	97	96	nt
CCOc1ccccc1/C=N/NC(=O)c1ccccc1O	-19	103	97	105
COc1ccc(OC)c(S(=O)(=O)Nc2cc3[nH]c(=O)[nH]c3cc2C)c1	-10	nt	nt	110
CCOc1ccc(NC(=O)CSc2nc(-c3ccc(F)cc3)cc(C(F)(F)F)c2C#N)cc1	-5	108	102	110
N#CCn1c(CN2CCOCC2)nc2ccccc2c1=O	-15	64	89	nt
Cc1nc2cc(-c3ccccc3)nn2c(C)c1CCC(=O)NC1CCCC1	-5	91	84	107
O=C(CSc1nnc2sc3ccccc3n12)Nc1cc(Cl)ccc1Cl	14	nt	nt	109
CS(=O)(=O)Cc1ccc(C(=O)O)cc1	-18	92	92	nt
CC(CNC(=O)CCS(=O)(=O)c1ccc2c(c1)oc(=O)n2C)c1ccccc1 (configuration not stated)	nt	94	82	104
COC(=O)c1cc(=O)c2cc(C)ccc2[nH]1	-85	nt	nt	95

(cont.)
SMILES	HCMV NEC inh	Sa growth inh	Sa growth inh second temp	GIV-Gai inh
O=C(O)c1ccc(C(=O)Nc2cccc(Cl)c2)c(C(=O)O)c1	-40	81	83	64*
CCN(CC)c1ccc(/C=C2\NC(=S)N(c3ccc(OC)cc3)C2=O)c(OC)c1	-12	nt	nt	224
CCOC(=O)/C(C#N)=C/C1=C(N)CC(C)(C)OC1	-60	112	103	108
COc1ccc(-c2ocnc2C(=O)NC2CCCc3ccccc32)cc1 (configuration not stated)	-26	114	93	103
Oc1c(C=Nc2cccnc2)sc2ccccc12	-60	nt	nt	134
COC(=O)C(NC(=O)Nc1ccccc1OC)C(C)C (configuration not stated)	-11	62	86	nt
Cc1cccc(N2CCN(C(=O)C(NC(=O)c3c(F)cccc3F)C(C)C)CC2)c1C (configuration not stated)	-12	97	89	nt
CC(=O)N1CC(C(=O)NC2CCCCCC2)Oc2ccccc21 (configuration not stated)	12	132	88	nt
C/C(CCc1oc2ccccc2c1-c1ccc(C)o1)=N\O	nt	45	59	100
Cc1cc(=O)cc(C)n1-c1ccccc1	-19	107	87	nt
CC1CCCCN1CCNc1nc(=S)[nH]c2ccccc12 (configuration not stated)	nt	111	82	113
CC1CCC(C(=O)NC(C(=O)N2CCC(N3CCCCC3)CC2)C(C)C)CC1 (configuration not stated)	-7	97	88	103
CCOc1ccccc1NC(=O)CSc1nc(-c2cccs2)cc(C(F)(F)F)n1	-20	91	96	97
O=c1c2snc(-c3ccc(Cl)cc3)c2ncn1C1CC1	6	109	81	105
COc1ccc(NC(=O)C2CCCN2S(=O)(=O)c2ccc3nc(-c4ccccc4)[nH]c3c2)cc1 (configuration not stated)	nt	121	94	105
O=C(c1cc2c(Cl)nc3ccccc3c2s1)N1CCCC1	nt	102	95	99
CCNC(=O)C1CCCN1S(=O)(=O)c1ccc(C)cc1 (configuration not stated)	nt	78	88	98
CCOP(=O)(c1ccccc1)C1(O)CCCCC1 (configuration not stated)	4	101	98	102
O=C1NC2(CCCCC2)N(C(=O)c2ccccc2F)C2=C1CCCC2	-14	91	84	103
Cc1ccc(-n2nc3c(N4CCCC(C(=O)NCc5cccnc5)C4)nnc(C)c3c2C)cc1 (configuration not stated)	-3	nt	nt	123
Cc1ccc(CC(=O)OC(C)C(N)=O)cc1C (configuration not stated)	-19	76	91	nt
COC(=O)c1sccc1NC(=S)OC	1	101	97	111
CC1CCc2c(sc3nc(CCC(=O)N4CCN(C5CCCCC5)CC4)[nH]c(=O)c23)C1 (configuration not stated)	-19	nt	nt	96
CCS(=O)(=O)N1CCCN(c2nc3cc(Cl)ccc3n3cccc23)CC1	-8	nt	nt	106
COc1cc2ncc(C(=O)c3ccccc3)c(N3CCOCC3)c2cc1OC	-37&1	86	77	107&99

Other entries.
SMILES	HCMV NEC inh	Sa growth inh	Sa growth inh second temp	GIV-Gai inh
N#Cc1c(C(F)(F)F)cc(-c2ccccc2)nc1SCC(N)=O	-29	102	88	106
CCOc1ccc2nc(NC(=O)c3sc(COc4ccc(Cl)c(C)c4)nc3C)sc2c1	-10	nt	nt	106
Cc1cc(C)n(C(=O)CC#N)n1	-5	118	105	107
O=C1CC(c2ccc3c(c2)OCO3)CC2=C1C(c1ccncc1)Nc1ccccc1N2 (configuration not stated)	2	94	68	99
CCOC(=O)c1cc(NC(=O)c2ccc(F)cc2)c(=O)n2c1oc1ccccc12	-31	81	92	109
CCn1c(C(=O)NCCCN2CCc3ccccc3C2)cc2sccc21	nt	94	84	105
CN1CCN(C(CNS(=O)(=O)c2ccc3c(c2)CCCC3)c2ccc(N(C)C)cc2)CC1 (configuration not stated)	-13	nt	nt	102
COc1ccc(CCNC(=O)c2nnc(-c3oc4ccccc4c3C)o2)cc1OC	12	nt	nt	100
CCc1nc2ccccc2n1CC(C)C(=O)O (configuration not stated)	5	73	96	104
O=C(c1noc2c1CCCC2)N1CCCC1	-7	91	84	101
Cc1ccc(CNC(=O)c2ccc(-n3cnc4cccnc43)cc2)cc1	nt	104	109	105
COc1ccc2c(c1)CCc1sc(NC(=O)c3cccc(Br)c3)nc1-2	nt	96	64	99
Cc1cc2c(n1-c1ccc(C(=O)NCc3cccs3)cc1)CCC(C)C2 (configuration not stated)	-28	115	74	113
Cc1ccc(C(=O)CN(c2nc3nc(C)cc(C)n3n2)S(=O)(=O)c2ccccc2)cc1	-26	nt	nt	110
CCOC(=O)N1CCC(NC(=O)c2ccco2)CC1	42	98	88	105
COc1cc(NC(=O)c2cc(S(=O)(=O)N3CCc4ccccc43)cn2C)cc(OC)c1OC	-17	118	98	100
CC(O)CNC(=O)Cc1cc(=O)[nH]c(=O)[nH]1 (configuration not stated)	-27	104	86	101
N#C/C(=C\c1ccccc1O)S(=O)(=O)c1ccc(Cl)cc1	-29	77	91	nt
C=CCn1c2ccccc2c2nnc(SCC(=O)Nc3nc4ccc([N+](=O)[O-])cc4s3)nc21	-4	nt	nt	106
O=C(OCc1cc(F)cc2c1OC(c1ccccc1)OC2)C1CC(=O)N(Cc2ccco2)C1 (configuration not stated)	11	131	90	nt
CC1CCCC(NC(=O)CSc2ccc3c(c2)OCCO3)C1C (configuration not stated)	10	81	93	nt
Nc1cc(C2CCCC2)nn1-c1ccccc1	-26	82	97	nt
Cc1ccc(Cl)cc1N(C)C(=O)c1cc2c(Cl)nc3ccccc3c2s1	-2	105	89	103
O=C(c1cc(-c2ccccc2)c(N2CCCCC2)s1)n1ccnc1	-26	107	92	108
COc1cccc(C(=O)NCCN2CCN(c3nccc(C(F)(F)F)n3)CC2)c1	-8	95	87	102

Following part:
SMILES	HCMV NEC inh	Sa growth inh	Sa growth inh second temp	GIV-Gai inh
CCC(C(=O)N(C)c1ccccc1)c1ccccc1 (configuration not stated)	14	94	115	nt
COc1ccc(CCNC(=O)CSc2nnc(-c3ccco3)c(-c3ccco3)n2)cc1OC	-44	101	79	111
COc1ccc(C2=N/C(=C\c3cc(OC)c(OC)c(OC)c3)C(=O)O2)cc1[N+](=O)[O-]	-19	nt	nt	103
COc1cccc(C2c3c(oc4ccccc4c3=O)C(=O)N2CCCN2CCOCC2)c1 (configuration not stated)	nt	94	89	104
CCOC(=O)N1CCN(c2cc(N3CCC(C)CC3)c3c4c(onc24)-c2ccccc2C3=O)CC1	-12	89	68	121
CCN(CC)c1nc(Nc2ccccc2)nc(Oc2ccc(=O)[nH]n2)n1	-14	100	70	105
Cc1cccc(-c2noc(-c3ccc(N4CCOCC4)c([N+](=O)[O-])c3)n2)c1	-11	105	84	103
Cc1c(C#N)sc(-c2ncn[nH]2)c1C	-76	89	81	107
COc1ccc(C2=Nc3ccccc3N(Cc3ccccc3)C(=O)C2)cc1	-33	nt	nt	101
C=CCN(CC=C)S(=O)(=O)c1ccc(C(=O)Nc2nnc(-c3ccc(OC)cc3)o2)cc1	-2	89	84	101
O=C1c2ccccc2C(=O)N1C(CO)C(O)c1ccccc1 (configuration not stated)	-18	112	94	98
Cc1ccc(OCc2nc3ccc(N)cc3[nH]2)cc1	-5&-12	102	91	104&95
O=C(NC1CCN(c2ncccn2)CC1)C1CC1	-18	92	85	99
O=C(NCc1ccccn1)C1CCC(CNS(=O)(=O)c2ccc(F)cc2)CC1 (configuration not stated)	-10	98	105	86
Cc1nn(CC(C)C)c(Cl)c1/C=C1/C(=O)N(C)C(=S)N1C	-36	85	75	nt
COc1cc2c(C(=O)NCCC(C)C)cn(C)c(=O)c2cc1OC	nt	109	92	104
Cc1ccc(CCNC(=O)CCc2nc3c(C)nn(-c4ccccc4)c3n(C)c2=O)cc1	-61	nt	nt	104
CCc1ccc(OCC(=O)NCCN2CCOCC2)cc1	-12	112	95	100
O=C(CSc1nc(=O)n2ccccc2n1)N1CCCC1	5	103	92	108
CCCCN(C)c1ccc(NS(=O)(=O)c2ccc(F)cc2)c(C(=O)O)c1	-27	nt	nt	104
N#Cc1ccccc1COC(=O)C1COc2ccccc2O1 (configuration not stated)	-22	98	87	nt
CN(C)C=Nc1ccccc1C1C=NNC1=O (configuration not stated)	-55	105	95	106
CCC(=O)Nc1ccc2nc(SCCOc3cccc(C)c3)sc2c1	15	101	94	99
Cn1cnnc1SCC(=O)O	-22	114	96	101
Cc1nn(-c2ccccc2)c(C)c1NC(=O)CN1CC(C)OC(C)C1 (configuration not stated)	-20	93	94	nt
CCS(=O)(=O)NCC(c1ccco1)N1CCN(c2ccc(F)cc2)CC1 (configuration not stated)	-10	96&95	94&94	97&103
CCCCC(C(=O)N1CCN(C(=O)C(CCCC)N2C(=O)C3C4C=CC(C4)C3C2=O)CC1)N1C(=O)C2C3C=CC(C3)C2C1=O (configuration not stated)	-15	nt	nt	105
NC1=NN(c2ccccc2)C(=O)C1	3	99	70	nt
Cc1ccc(S(=O)(=O)N2C(=O)CCC2C(=O)NCc2nc(-c3cccc(C)c3)no2)cc1 (configuration not stated)	-12	nt	nt	100
OC(CNCCc1ccccn1)C(F)(F)F (configuration not stated)	-9	nt	nt	109

Screening data deposited in PubChem by ICCB-Longwood Screening Facility, Harvard Medical School.
